Screens: PubChem, ICCB-Longwood Screening Facility, Harvard Medical School
MenB inh: M. tuberculosis MenB inhibitors, primary screen, biochemical, absorbance; 1,4-dihydroxy-2-naphthoyl-CoA synthase (Mycobacterium tuberculosis (strain ATCC 25618 / …; MenB enzyme assay, absorbance read-out; some hits fall short of the stated cut; inhibition, %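 (about 12 µg/mL by stock and volumes)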; 100,000 tested, 0.43% active; AID 540299, 2011;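 active means mean of two replicates above 30%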;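 further: 0% = no compound and 100% = wells with inactive enzyme; the first replicate is given; strong numbers were not always called active; inactives centre near -10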
PV pol inh: poliovirus RdRp elongation inhibitors, primary screen, biochemical, fluorescence polarization, total intensity; Genome polyprotein (Poliovirus type 1 (strain Mahoney)), P03300; poliovirus polymerase elongation; hits give low values; % elongation, % (compound at 16.7 µg/mL); 150,000 tested, 0.66% active; in the data active means % elongation below about 90%; further: some results filed as inactive read as strong as hits
Target sequence (P03300 1749-2209 limits assumed): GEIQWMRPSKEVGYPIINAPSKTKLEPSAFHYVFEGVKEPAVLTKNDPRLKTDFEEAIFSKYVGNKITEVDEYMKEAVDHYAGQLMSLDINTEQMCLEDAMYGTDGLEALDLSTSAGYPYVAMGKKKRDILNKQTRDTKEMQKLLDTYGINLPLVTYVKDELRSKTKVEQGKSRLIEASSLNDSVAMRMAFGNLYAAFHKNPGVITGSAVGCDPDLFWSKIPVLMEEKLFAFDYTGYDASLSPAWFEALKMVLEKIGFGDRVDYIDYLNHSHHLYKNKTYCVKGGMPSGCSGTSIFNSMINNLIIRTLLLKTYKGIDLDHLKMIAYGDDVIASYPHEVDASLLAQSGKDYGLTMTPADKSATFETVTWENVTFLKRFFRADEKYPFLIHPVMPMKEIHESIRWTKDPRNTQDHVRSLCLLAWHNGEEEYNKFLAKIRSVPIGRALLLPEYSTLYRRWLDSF
Mtb MbtI inh: MbtI salicylate synthase inhibitors, primary screen, biochemical, fluorescence intensity | P9WFX0 | purified MbtI enzyme, fluorescence intensity read-out | inhibition, %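 (about 17 µg/mL by stock and volumes)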 | 100,000 tested, 0.89% active;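 active means above 50% in both replicates, above 80% if mildly self-fluorescent; inactive means the rest, strongly fluorescent compounds included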;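 further: 0% = mean of negative and 100% = mean of positive controls; one replicate is shown; some compounds called inactive have numbers as strong as hits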
Target sequence (P9WFX0 whole entry, looked up): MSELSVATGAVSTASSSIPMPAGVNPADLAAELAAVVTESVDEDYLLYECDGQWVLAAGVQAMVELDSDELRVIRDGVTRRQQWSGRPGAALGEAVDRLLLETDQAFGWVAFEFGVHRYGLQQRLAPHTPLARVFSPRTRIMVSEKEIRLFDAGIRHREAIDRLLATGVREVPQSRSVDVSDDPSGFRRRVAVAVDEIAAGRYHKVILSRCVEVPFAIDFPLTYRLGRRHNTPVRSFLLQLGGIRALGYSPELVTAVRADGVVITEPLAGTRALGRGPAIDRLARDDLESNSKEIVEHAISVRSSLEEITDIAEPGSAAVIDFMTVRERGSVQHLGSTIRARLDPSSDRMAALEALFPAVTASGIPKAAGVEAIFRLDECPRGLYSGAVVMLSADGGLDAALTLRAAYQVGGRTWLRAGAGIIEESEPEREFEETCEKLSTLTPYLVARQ
PV pol inh intensity: further read-out of PV pol inh, marked with its call; % elongation; measured here: total intensity read-out; formula for this scale not given here;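 total fluorescence in place of polarization; lower means less elongation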
The depositor's hits bear a star; . = not tested or not shown; & = joins results of further samples.

Values in the order: MenB inh	PV pol inh	PV pol inh intensity	Mtb MbtI inh
- Cc1nn(-c2ccccc2)c(Cl)c1C1N2CCCN1CC2 (stereo unspecified)
  33*	102	99	3
- O=C(Cc1ccsc1)OC(C(=O)c1ccccc1)c1ccccc1 (stereo unspecified)
  .	103	101	-6
- CCOC(=O)COc1ccc(C2=Nc3ccccc3NC(c3ccccc3)C2)cc1 (stereo unspecified)
  0	105	103	-1
- Cc1nc2cc(NC(=O)CCN3C(=O)NC4(CCCC4)C3=O)ccc2n1-c1ccccc1
  8	96	103	0
- Cc1cc(NC(=O)CSc2nc3ccccc3c(=O)n2CCO)n(-c2ccccc2)n1
  -4	101	103	0
- CCC1(C)OC(c2ccc(Br)cc2)=Nc2ccccc21 (stereo unspecified)
  -18	101	104	.
- Cc1ccc(C)c(NC(=O)CSc2c(C)n[nH]c2C)c1
  -24	.	.	27
- CCOC(=O)Cn1nc(-c2ccccc2)c2ccccc2c1=O
  -4	101	100	-5
- CC(C)(C)c1ccc(-c2[nH]nc(NS(=O)(=O)c3ccccc3)c2Br)cc1
  -19	101	107	-10
- O=C(CC(F)(F)F)Nc1ccccn1
  -1	100	102	-10
- Cc1nnc(Sc2cc(C(=O)NCCc3ccccc3)c3ccccc3n2)s1
  4	103	107	0
- COc1ccc(C2N(C)c3ccccc3N2C)cc1
  4	102	102	114
- O=C(OCC(=O)N1CCCC1=O)C(c1ccccc1)c1ccccc1
  -21	99	90	18
- CCn1c(CCC(=O)NCc2ccc(C)cc2)nc2cc(S(=O)(=O)N(C)C)ccc21
  -3	104	113	-11
- CCc1ccc(C(=O)c2cnc3cc4c(cc3c2N2CCCC2)OCO4)cc1
  10	102	98	10
- CCOC(=O)c1ccc(NCc2cn[nH]c2-c2ccc(C)cc2)cc1
  9	101	97	-31
- NC(=O)COc1ccc(/C=C2/NC(=O)NC2=O)cc1
  11	101	100	25
- NNC(=O)CN1CCCCCC1=O
  -16	104	101	6
- Cc1cc(OCC(=O)c2ccc(F)cc2)ccc1N1C(=O)CCC1=O
  -11	100	102	-4
- Cc1ccc(-c2[nH]nc3nc(C(=O)O)cc(-c4cccc5ccccc45)c23)cc1
  -2	99	99	-6

Following part.
Values in the order: MenB inh	PV pol inh	PV pol inh intensity	Mtb MbtI inh
- CC(NC(=O)C1C(=O)NC2(C)CC1c1ccccc1O2)c1ccccc1 (stereo unspecified)
  -14	106	113	.
- COC(=O)CSC1=C(C#N)C(c2cccc(Cl)c2Cl)C2=C(CCCC2=O)N1 (stereo unspecified)
  -22	102	104	-52
- O=C(C1CCC(CNS(=O)(=O)c2ccccc2)CC1)N1CCCCC1 (stereo unspecified)
  -1	100	101	-13
- CC(C)(C)c1csc(-c2ccc(OC(F)(F)F)cc2)n1
  -6	103	110	-9
- CCCCCCNc1nc(NCc2ccco2)nc(OCC)n1
  -24	102	103	4
- CC1CN(C(=O)N2CCC(C(=O)N3CCN(c4ccccn4)CC3)CC2)c2cc(Cl)ccc2O1 (stereo unspecified)
  -13	104	102	-20
- NC(=S)Nc1nc2ccccc2s1
  -2	98	97	36
- O=C(CCCn1ncn2c(cc3occc32)c1=O)NCc1ccccc1
  5	101	102	14
- CCCN(Cc1cccs1)C(=O)NC12CC3CC(CC(C3)C1)C2
  -17	104	104	-9
- NCCCNC(=O)c1ccco1
  -1	101	104	-2
- O=C(OCc1nc2ccccc2s1)C1CCN(S(=O)(=O)c2ccccc2C(F)(F)F)CC1
  -18	106	108	0
- CC(Sc1nnc(-c2cccs2)n1C1CC1)C(=O)N1CCNC1=O (stereo unspecified)
  3	100	109	-4
- O=C(Cc1cccc2ccccc12)OCC(=O)c1ccc(Br)cc1
  -22	104	103	.
- NC(=O)c1nn(-c2ccccc2)c(=O)cc1O
  -3	99	97	3
- COc1ccc(OC(=O)c2csc(Cc3c(Cl)cccc3Cl)n2)cc1
  -10	110	114	-8
- Cc1ccc(/C=C/C(=O)NCCCn2ccnc2)cc1
  -1	104	102	10
- Cc1cccc(N2CN(CCc3ccccc3)CNC2=S)c1C
  2	100	102	-4
- Cc1ccc(-c2noc(-c3cc(C(C)C)[nH]n3)n2)cc1
  1	102	104	-14
- CCn1cc(C(=O)OCc2ccccc2)c(=O)c2ccc(C)nc21
  -10	98	99	-1
- Cc1ccc(Nc2nc(COC(=O)/C=C/c3ccc(C)o3)cs2)cc1
  -32	106	100	16

Only PV pol inh and MenB inh, for 4 of the compounds above:
compound	PV pol inh	MenB inh
CC(NC(=O)C1C(=O)NC2(C)CC1c1ccccc1O2)c1ccccc1 (stereo unspecified)	106	-14
COC(=O)CSC1=C(C#N)C(c2cccc(Cl)c2Cl)C2=C(CCCC2=O)N1 (stereo unspecified)	102	-22
O=C(C1CCC(CNS(=O)(=O)c2ccccc2)CC1)N1CCCCC1 (stereo unspecified)	100	-1
CC(C)(C)c1csc(-c2ccc(OC(F)(F)F)cc2)n1	103	-6

Additional records follow.
Values in the order: MenB inh	PV pol inh	PV pol inh intensity	Mtb MbtI inh
- CCCCn1c(CCNC(=O)c2ccco2)nc2ccccc21
  12	104	98	5
- O=C(Nc1cc(=O)[nH]c(=O)[nH]1)c1cc(Br)ccc1Cl
  7	100	105	5
- COc1ccc(C(=O)N2CCN(C34CC5CC(CC(C5)C3)C4)CC2)cc1OC
  -12	104	104	-10
- Cc1ccc(NC(=O)NCCCN2CCCC2=O)cc1
  -17	103	103	-10
- CCOC(=O)N1CCC(NC(=O)CCS(=O)(=O)c2ccc3c(c2)CCN3C(=O)CC)CC1
  6	100	104	0
- CCN(c1ccccc1)c1cc2ccccc2c(=O)[nH]1
  4	94	102	106
- Cc1ccc(CC(=O)N2CCN(S(C)(=O)=O)CC2)cc1
  -33	104	99	2
- C=CCOC1C=CC=CC1C(c1c(C)[nH][nH]c1=O)c1c(C)[nH][nH]c1=O (stereo unspecified)
  -16	101	94	3
- c1ccc2c(c1)oc1c(N3CCCCC3)ncnc12
  -9	102	107	-54
- O=C(O)c1ccc2[nH]c3c(c2c1)CCCC3
  .	101	105	-61
- Cc1cc(C)n(CCC(=O)NC2CCCc3ccccc32)n1 (stereo unspecified)
  0	100	106	-16
- CCN(CC)CCC1S(=O)(=O)CC(c2ccccc2)CS1(=O)=O (stereo unspecified)
  4	102	109	-5
- CC(=O)Oc1c(C(C)(C)C)ccc(C(C)(C)C)c1O
  -23	100	101	31
- OCC[N+]12CCCCC1[C@H](CO)CCC2 (stereo partly specified)
  -20	102	102	-3
- CCOc1ccc(C(=O)Nc2ccc(-c3nc4ccccc4o3)cc2)cc1Br
  4	104	105	7
- CCN1CCN(Cc2csc(C)c2C)CC1
  0	102	105	-12
- O=C1c2ccccc2C(=O)N1CC12CC3CC(CC(C3)C1)C2
  -10	101	109	-7
- CNC(=O)C1C2C=CC3(O2)C1C(=O)N(C1CC1)C3C(=O)NCc1ccc(OC)cc1 (stereo unspecified)
  48*	102	103	-4
- Cc1c(C(=O)N2CCCCC2)sc(NC(=O)C(C)C)c1C#N
  3	102	104	-11
- Cn1nc(C(=O)NCCN2CCOCC2)c2c1-c1ccccc1CC2
  -21	102	101	48

(cont.)
Values in the order: MenB inh	PV pol inh	PV pol inh intensity	Mtb MbtI inh
- CCc1ccc(NC(=O)C2CCN(S(=O)(=O)c3c(C)noc3/C=C/N(C)C)CC2)cc1
  7	99	102	-2
- CCSC1=N/C(=C\c2cc3c(cc2Br)OCO3)C(=O)S1
  -19	101	98	-9
- O=C(O)CCc1nc(-c2cccnc2)no1
  9	99	103	-1
- CCCCn1nc(C)c(C(=O)NC2=NCCS2)c1Cl
  -17	98	104	5
- CCC12CN3CC(CC)(CN(C1)C31C(=O)N(C)c3ccc(C)cc31)C2=O (stereo unspecified)
  28	100	102	-4
- CC(C)CCOC(=O)c1cc2cc(Br)ccc2oc1=O
  -1	100	97	-8
- COC(=O)c1ccc(Sc2ccc(Cl)cc2)c(N)c1
  4	104	106	100
- CC(C)(C)c1ccc(NC(=O)/C=C/c2ccc(-c3cccs3)s2)cc1
  -37	102	103	-3
- C=C(C)[C@@H]1[C@H]2OC(=O)[C@@H]1[C@]1(O)C[C@H]3O[C@]34C(=O)OC2[C@]14C (stereo partly specified)
  4	100	100	-6
- O=C(O)CN1CC(=O)NC1=O
  -39	107	100	-11
- O=C(O)c1ccc(OC(=O)c2ccccc2)cc1
  18	101	103	2
- CCNC(=S)N1CCC(C(=O)c2ccc3c(c2)OCCO3)CC1
  -80	102	102	14
- CC(C)c1c(C#N)c(N)nc(SCC(=O)c2ccc(Cl)c(Cl)c2)c1C#N
  -20	100	103	-2
- Cc1ccc(/C=N/n2cnc3sc(C)c(C)c3c2=O)o1
  -12	101	97	3
- CC1CCC2(CC1)NC(=O)N(NC(=O)CN1CCN(Cc3ccc4c(c3)OCO4)CC1)C2=O (stereo unspecified)
  -2	102	108	-4
- CCN1C(=O)S/C(=C\c2cc(C)n(-c3ccccn3)c2C)C1=O
  -153	98	104	11
- CCOc1cc(Br)c(CC#N)cc1OCC
  -5	104	105	-2
- CC(C)(C)S(=O)(=O)/C(C#N)=C/Nc1ccccn1
  -10	105	107	4
- Cc1nn(Cc2ccc(F)cc2)c(C)c1NC(=O)c1cc(-c2ccc3c(c2)OCO3)on1
  -17	100	96	-6
- Cc1ccc(S(=O)(=O)NC2=NCN(C3CCN(Cc4ccccc4)CC3)CN2)cc1
  -18	104	108	-8

Entries of single compounds from above.
Cc1ccc(/C=N/n2cnc3sc(C)c(C)c3c2=O)o1 is entered as MenB inh: -12; PV pol inh: 101; PV pol inh intensity: 97; Mtb MbtI inh: 3
CC(C)(C)c1ccc(NC(=O)/C=C/c2ccc(-c3cccs3)s2)cc1 is entered as MenB inh: -37; PV pol inh: 102; PV pol inh intensity: 103; Mtb MbtI inh: -3

Next part
Values in the order: MenB inh	PV pol inh	PV pol inh intensity	Mtb MbtI inh
- CN(CC(=O)N1CCc2ccccc21)C1CCS(=O)(=O)C1 (stereo unspecified)
  4	109	110	-10
- COc1cccc(NC(=S)/N=C(\N)Nc2nc(C)c3ccccc3n2)c1
  -36	101	107	-90
- COC(=O)COc1ccc(S(=O)(=O)c2ccc(OCC(=O)OC)cc2)cc1
  -23	99	102	-20
- Cc1c(C(=O)Nc2ccccc2C#N)oc2ccccc12
  -7	100	104	41
- COC(CNC(=O)c1coc2nc3ccccc3nc12)OC
  -24	101	101	-172
- COC(=O)C(CC(C)C)NS(=O)(=O)c1ccc(-c2nnc(SC)n2C)s1 (stereo unspecified)
  -1	107	112	99
- Cc1cnc(=O)[nH]c1SCC(=O)c1ccc(F)cc1
  -34	103	104	47
- COc1ccc(-c2n[nH]c(=S)n2CCC(=O)O)cc1
  -12	105	107	-116
- NC(=O)COC(=O)CC12CC3CC(CC(Br)(C3)C1)C2
  .	101	103	-6
- NC(=O)C1CCN(c2ccc(Cl)nn2)CC1
  -7	.	.	-3
- O=C(/C=C/c1ccc(F)cc1)NC(=S)Nc1ccccc1O
  -30	102	104	-3
- O=S1(=O)CCC(N=Cc2ccccc2Cl)C1 (stereo unspecified)
  -15	104	108	.
- CC(C)c1ccc(Nc2c(-c3ccccc3)nc3cnccn23)cc1
  -3	100	106	-4
- Cc1cc(/C(N)=N/OC(=O)Nc2ccccc2)no1
  -15	101	104	-7
- COc1ccc(NC(=O)Nc2c(SC)nsc2SC)cc1
  -5	104	106	0
- CS(=O)(=O)N1CCN(C(=O)c2ccccc2)CC1
  -5	104	101	-20
- Cc1nn(-c2ccccc2)c2nc(N)c(C#N)c(-c3ccco3)c12
  0	90	89	76
- Cc1ccc(NC(=O)COC(=O)CC2Oc3ccccc3NC2=O)cc1 (stereo unspecified)
  -10	99	104	10
- O=C(NCCc1c[nH]c2ccccc12)c1ccc2nc[nH]c2c1
  -34	110	103	-1
- CCCCCOc1ccc(C(CC(N)=O)CC(=O)O)cc1 (stereo unspecified)
  -20	101	108	7

The results go on:
Values in the order: MenB inh	PV pol inh	PV pol inh intensity	Mtb MbtI inh
- CC1CC/C(=C\c2ccc(Cl)cc2)C(=O)C1 (stereo unspecified)
  -18	101	103	12
- CCOCCCN=C1NC(CC)CS1 (stereo unspecified)
  -24	102	108	-16
- CCN(Cc1nc(-c2ccc(OC)c(OC)c2)no1)C(=O)CCC1CCCCC1
  -61	102	102	-1
- C[C@@]12C[C@H](O)CCN1CCc1ccccc12
  11	94	111	59
- N=C1C(c2nc3ccccc3s2)=C(O)CN1C1CCCC1
  1	100	101	-63
- O=C(O)c1ccc(-c2ccc(/C=C3\Sc4ccccc4C3=O)o2)cc1
  -18	77	189	16
- CCC(=O)Nc1nc2c(s1)C(=O)CC(c1ccccc1)C2 (stereo unspecified)
  -11	106	102	-7
- COc1ccc(NC(=O)NNc2cc(N3CCOCC3)nc(N3CCOCC3)n2)cc1
  -8	101	99	-10
- CC(C)(C)c1nc(N=C(N)N)sc1Br
  5	100	99	-10
- O=C(CN1CCN(S(=O)(=O)c2ccc(Br)s2)CC1)N1CCCc2ccccc21
  -22	105	106	-9
- Cc1ccc2onc(CNC(=O)N3C(C)CCCC3C)c2c1 (stereo unspecified)
  -37	107	99	-22
- Cc1cc(C(C)(C)C)c(O)c(C)c1CC1=NCCN1
  -3&7	101&99	100&105	-7&-15
- CCCn1c(SCc2ccccc2C#N)n[nH]c1=O
  1	97	99	10
- N#Cc1ccc(NC(=O)CSc2ncn[nH]2)cc1
  -17	102	105	16
- O=C1C=CC(=O)c2c(Cl)ccc(Cl)c21
  -23	101	102	92
- N#Cc1c(NC(=O)CCn2cnnn2)sc2c1CCCC2
  -41	105	100	3
